miR-21 reporter: qHTS Assay for Modulators of miRNAs and/orActivators of miR-21. Potency, µM (highest dose often 38.3 µM), for the others: top-dose reporter change, positive = more light. HeLa miR-21 FLuc reporter, luciferase, 48 h. 340,000 tested, under 10 active. AID 2288, 2010; active = well fitted rising curve with a large enough effect; inconclusive = small, poorly fitted or top-dose-only effect; inactive = no such curve, though single readings can be large or run the other way;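 note: % of control where 0% means no effect; miR-21 action dims this reporter so a rising signal means less miR-21 action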
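HeLa cells stably expressing CMV-driven firefly luciferase with a downstream miR-21 binding sequence, endogenously expressing miR-21, were treated with titrations (up to about 40uM final) for 48 hours at 37 degree Celsius. Luciferase luminescence was read after lysis.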
Rango-impB inh: qHTS Assay for Inhibitors of Rango (Ran-regulated importin-beta cargo) - Importin beta complex formation; Importin subunit beta-1 (Homo sapiens), Q14974; Rango CFP/YFP FRET sensor + importin beta, 45 min; Potency, µM (series often up to 92.2 µM), for inactives: at the top dose inhibition of complex formation; actives 0.031% (n = 340,000); AID 540263, 2011; active = rising FRET ratio curve, often small or poorly fitted; inconclusive = mostly compound fluorescence or quenching in the first reads; inactive = flat curves in all reads;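 note: potency is the fitted concentration of half-maximal effect; 0% = DMSO wells and 100% = buffer wells lacking importin beta; nearly all actives have a fitted effect of over 15% in size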
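Inhibition scored from the CFP 486 nm/YFP 530 nm FRET ratio 45 min after adding 0.125 microM importin beta to 50 nM Rango biosensor preincubated 5 min with compound (room temperature, PBS with DTT, Tween-20, BSA). No-importin wells as positive control.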
GLA inh pH 4.5: qHTS Assay for Inhibitors of Human alpha-Galactosidase at pH 4.5; Alpha-galactosidase A (Homo sapiens), P06280; purified enzyme, 4-MU-alpha-Gal fluorescence, pH 4.5; activity change, negative = inhibition, % at 105 µM; 230,000 tested, under 10 active; AID 1467, 2008; inconclusive = small, poorly fitted or top-dose-only inhibition, or a rising curve; inactive = flat fitted curve, though single readings scatter; no compound was filed as active;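 note: 0% = full activity with enzyme and -100% = basal without enzyme; dose as in the result columns while the protocol names 77 µM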
Target sequence (P06280 whole entry, looked up): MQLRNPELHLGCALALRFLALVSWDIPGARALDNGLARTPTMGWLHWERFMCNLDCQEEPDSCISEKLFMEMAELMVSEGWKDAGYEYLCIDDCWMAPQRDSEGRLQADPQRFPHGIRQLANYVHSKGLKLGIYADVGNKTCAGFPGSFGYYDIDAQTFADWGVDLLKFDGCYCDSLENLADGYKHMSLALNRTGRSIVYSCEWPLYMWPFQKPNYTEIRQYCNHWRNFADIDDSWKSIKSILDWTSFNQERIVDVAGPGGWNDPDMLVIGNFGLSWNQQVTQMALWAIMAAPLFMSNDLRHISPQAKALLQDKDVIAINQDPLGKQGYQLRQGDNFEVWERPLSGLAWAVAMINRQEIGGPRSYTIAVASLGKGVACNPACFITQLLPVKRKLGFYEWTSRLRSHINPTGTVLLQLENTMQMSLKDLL
Rango release inh: qHTS Assay for Inhibitors of RanGTP induced Rango (Ran-regulated importin-beta cargo) - Importin beta complex dissociation. Snurportin-1 (Homo sapiens) + GTP-binding nuclear protein Ran (Homo sapiens) + Importin …. actives 0.071% (n = 340,000). Potency, µM (top dose mostly 46.1 µM), for inactives: at the top dose activity change, negative = inhibition. AID 540253, 2011. Biochemical FRET Rango-importin beta, RanGTP-induced dissociation; active means falling FRET ratio curve, often poorly fitted, with flat reads before Ran was added; inconclusive means other falling curves, or compound fluorescence or quenching; inactive means flat or rising ratio curve;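 note: potency is the fitted concentration of half-maximal effect; % of control where 0% means no effect; nearly all actives have a fitted effect of over 45% in size; -100% = wells without RanGTP and RCC1; the record marks most hits as doubtful in a second field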
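Quantitative HTS using a FRET biosensor: 0.1 uM Rango, 0.25 uM importin beta, 0.6 uM Ran, 2 mM GTP, 0.2 uM RCC1 final, PBS with DTT, Tween-20 and BSA. Post-read taken 45 min after Ran addition.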
The depositor's hits bear a star; ? = inconclusive; nt = not tested or not shown; & = joins results of further samples. These rows are one share of the data, so the mix of outcomes need not match the whole.

Start of the listing, in advance, 2 compounds:
molecule,miR-21 reporter,Rango-impB inh,GLA inh pH 4.5,Rango release inh
N=C1C(c2ccccc2)=C(O)CN1CCO,0%,2.0%,2,1%
COc1ccc(C2/C=C\CN(C(=O)c3ccccc3)CC(=O)N2Cc2cccc(F)c2)cc1 (configuration not stated),nt,-0.2%,nt,2%

This part in full, from the start:
molecule,miR-21 reporter,Rango-impB inh,GLA inh pH 4.5,Rango release inh
N=C1C(c2ccccc2)=C(O)CN1CCO,0%,2.0%,2,1%
COc1ccc(C2/C=C\CN(C(=O)c3ccccc3)CC(=O)N2Cc2cccc(F)c2)cc1 (configuration not stated),nt,-0.2%,nt,2%
O=C(Nc1ccc(-c2n[nH]c(=S)o2)cc1)c1ccccc1,-28%,-0.2%,nt,13%
COC(=O)[C@@H]1CCCN1C(=O)[C@@H](NC(=O)OC(C)(C)C)C(C)C,nt,-0.8%,nt,-8%
COc1ccc(CN2CCCC(N3CCN(c4cccc(Cl)c4)CC3)C2)cc1OC (configuration not stated),12%,-0.9%,nt,4%
Cc1ccc(S(=O)(=O)N(C)C)cc1NC(=O)CSc1ccc2c(c1)OCCO2,nt,-0.4%,nt,-2%
CN(CC(=O)Nc1ccc(Cl)c(C(F)(F)F)c1)C(=O)c1cc(-c2ccncc2)nc2ccccc12,nt,-1.1%,nt,-19%
O=C(NNC(=O)c1c(F)cccc1F)c1sccc1-n1cccc1,0%,3.8%,-5,45%
CC(=O)c1cccc(NC(=O)COC(=O)COc2ccc(Cl)cc2)c1,-3%,-3.6%,?,0%
CCc1cccc(NC(=O)CCS(=O)(=O)c2ccc3c(c2)NC(=O)CO3)c1,0%,-3.8%,nt,-2%
Cn1c(SCC(=O)c2ccccc2)nc2cccnc21,-21%,-2.3%,-17,19%
O=C(Nc1ccccc1)C1=C[C@@H](c2ccc3c(c2)OCO3)C[C@@H](OCCCCO)O1,nt,-0.2%,nt,1%
Cc1cc(C)c(NC(=O)CSc2nnc(Cc3cccn3C)n2-c2ccc(F)cc2)c(C)c1,-1%,-3.4%,7,9%
O=S(=O)(Nc1ccc(Cl)cc1)c1ccc(N2CCOCC2)c(NC(=S)NC2CC2)c1,11%,-0.6%,3,-12%
O=C1C2ON(c3ccccc3)C(c3ccccn3)C2C(=O)N1c1ccc(Br)cc1 (configuration not stated),0%,-0.4%,-2,20%
CCC(=O)N(Cc1cccs1)C1CCOC(C)(C)C1 (configuration not stated),-3%,1.0%,2,0%
O=C(COC(=O)c1ccc(NS(=O)(=O)c2ccc(Br)s2)cc1)NC1CCCC1,-1%,1.8%,-1,1%
CCOc1ccc(C(C)(N)C(=O)O)cc1 (configuration not stated),-1%,0.0%,-1,8%
Cc1ccc(C(=O)/C=C/c2ccc3ncccc3c2)cc1,-7%,-0.1%,nt,-8%
COCCCN(C(=S)NC(=O)C(C)(C)C)c1c(N)n(Cc2ccccc2)c(=O)[nH]c1=O,0%,-1.9%,1,-5%
S=C(Nc1cccc(Br)c1)c1ccccc1,-51%,7.5%,2,9%
CCCNC(=O)c1ccccc1NC(=O)c1ccc2c(=O)n3c(nc2c1)CCC3,nt,0.1%,nt,-8%
COc1ccc(NS(=O)(=O)c2cccc(C(=O)NCCCN3CCOCC3)c2)cc1,nt,1.8%,nt,-17%
CC(=O)N1CCc2cc(S(=O)(=O)N3CCc4ccccc43)ccc21,0%,-0.1%,nt,1%
CCc1ccc(NC(=S)/N=C(\N)Nc2nc(C)c3cc(CC)ccc3n2)cc1,11%,1.0%,3,-12%
Cc1cccc(NC(=O)c2cc(-c3cc(Cl)ccc3O)n[nH]2)c1,-58%,0.1%,nt,16%
Nc1ncnc2c1ncn2Cc1ccccc1,-14%,4.8%,-11,4%
Cc1cc(C)n(-c2nc(Nc3ccccc3)nc(-n3nc(C)cc3C)n2)n1,0%,0.0%,3,-7%
CNC(=O)c1cc2ccccc2o1,-12%,-0.4%,-10,-9%
COC(=O)c1ccc(CN2C(=O)NC3(CCCCC3C)C2=O)o1 (configuration not stated),-7%,3.4%,-1,18%
Cc1cccc(C)c1OCC(=O)Nc1c(C)nn(C)c1C,-2%,7.7%,nt,13%
COc1ccc2sc(N(CCCN(C)C)C(=O)c3ccc(S(=O)(=O)N4CCCC4)cc3)nc2c1,nt,2.6%,nt,4%
CCOc1ccc(S(=O)(=O)Nc2cccc(C(=O)N3CCN(C(C)=O)CC3)c2)cc1,nt,0.3%,nt,-12%
Cc1c(C(=O)NCCO)sc2nc3n(c(=O)c12)CCC3,-5%,1.5%,5,9%
COc1ccccc1NC(=O)CSc1nnc(CCC(=O)Nc2ccccc2F)n1C,3%,1.1%,-4,-5%
Cc1ccc(C)c(SCC(=O)Nc2ccc(C)c(S(=O)(=O)N3CCOCC3)c2)c1,nt,1.6%,nt,4%
COc1ccc(N2C(=NC(=O)c3ccc(Br)cc3)SC3CS(=O)(=O)CC32)cc1 (configuration not stated),nt,0.1%,nt,-1%
CSc1oc(-c2ccc(F)cc2)nc1S(=O)(=O)c1ccc(F)cc1,-2%,0.3%,2,6%
Cc1cc(C)n(CCC(=O)N2CCCC(N3CCN(c4cccc(Cl)c4)CC3)C2)n1 (configuration not stated),2%,1.4%,nt,-9%
COCCOC(=O)c1c(C)oc2ccc(NS(=O)(=O)c3cccs3)cc12,-11%,0.1%,-17,1%
O=C(/C=C/c1cc2c(cc1Br)OCO2)NCc1ccc(F)cc1,-7%,0.7%,0,1%
O=C(CN(Cc1cccs1)C(=O)CN1C(=O)COc2ccccc21)NCc1ccco1,-5%,-3.5%,-15,-3%
COc1ccc(-n2c(SCC(=O)Nc3ccc4c(c3)OCO4)nnc2C(C)N2CCCCC2)cc1 (configuration not stated),0%,-0.1%,-1,0%
Cc1c(C=O)c2ccccc2n1CC(=O)O,1%,-0.2%,8,2%
O=C(NC1CCSc2ccccc21)c1ccc(Cl)c(S(=O)(=O)N2CCOCC2)c1 (configuration not stated),-3%,-0.9%,nt,-11%
COc1ccc(OCCC(=O)OCC(=O)Nc2cccc(Br)c2)cc1,-4%,-1.9%,-5,2%
C=CCOC(=O)/C(=C\C=C\c1ccccc1)NC(=O)c1ccccc1,-18%,0.0%,-1,-1%
Cn1c(=O)c2[nH]c(-c3ccccc3)nc2n(C)c1=O,-2%,nt,-3&1,nt
Cc1ccccc1CN1CCN(C(=O)c2ccco2)CC1,-30%,3.3%,nt,13%
C=CCNC(=S)NNC(=O)c1ccc(Br)o1,-4%,-3.6%,-4,-2%
CN1CCc2c(sc(NC(=O)C3CCCCC3)c2C(N)=O)C1,-9%,?,nt,?
Cc1ccc(-n2c(SCC(=O)N3CCOCC3)nnc2-c2cccnc2)cc1C,-3%,3.9%,-20,-2%
Cc1ccccc1Nc1nc(N)nc(CSc2ccc(F)cc2)n1,-61%,0.8%,2,-11%
CCOc1ccc(NC(=S)N(CCN2CCOCC2)Cc2ccc3c(c2)CCCN3CC)cc1,5%,-0.1%,-11,9%
CC(C)[C@H](NC(=O)C1CC(=O)N(c2ccc(F)cc2)C1)C(=O)N1CCCCC1 (some centres not stated),2%,1.9%,nt,?
CCCCn1c(SCC(=O)c2ccc3c(c2)OCCO3)nnc1-c1ccoc1C,-1%,1.1%,-9,27%

Next section:
molecule,miR-21 reporter,Rango-impB inh,GLA inh pH 4.5,Rango release inh
COC(=O)c1ccc(/C=N/n2c(C)nc3ccccc3c2=O)cc1,-30%,?,nt,-9%
CC(C)(C)OC(=O)C[C@@H]1C/C=C\C[C@H](CC(=O)N[C@@H](CO)Cc2ccccc2)C(=O)N[C@H](C(C)(C)C)COC1=O,nt,-2.8%,nt,-8%
COc1ccc(N(CC(=O)N/N=C/c2ccccc2OC)S(=O)(=O)c2ccccc2)cc1,0%,0.1%,nt,0%
C=CCNC(=S)NNC(=O)COc1ccc(Cl)cc1Cl,-5%,2.9%,1,-15%
Cc1ccc(C)c(C(=O)C(C)OC(=O)CN2C(=O)NC3(CC(C)CC(C)(C)C3)C2=O)c1 (configuration not stated),-3%,0.1%,nt,0%
COc1ccccc1N1CCN(Cc2nc3ccccc3[nH]2)CC1,-1%,6.2%,nt,0%
O=C(Nc1ccc(F)cc1)c1cccnc1N1CCCCC1,4%,2.6%,6,-20%
Cc1ccc(-c2n[nH]c(=S)n2/N=C/c2cccs2)cc1,-17%,-0.1%,0,-6%
O=C(NC(=S)N1CCN(c2ccc(F)cc2)CC1)C12CC3CC(CC(C3)C1)C2,-6%,-3.6%,0,1%
CC(C)CCN1CCN(C2CCN(c3ccc4c(c3)OCO4)CC2)CC1CCO (configuration not stated),4%,2.3%,6,-28%
O=C(NCCCCc1ccccc1)Nc1ccc(F)cc1,-10%,-1.5%,nt,0%
Cc1cc(NC(=O)CN(C)CC(=O)Nc2ccc(Cl)c(C(F)(F)F)c2)no1,nt,-3.7%,nt,9%
Cc1cc(C(=O)CN2C(=O)c3ccccc3S2(=O)=O)c(C)n1C(C)C,nt,1.5%,nt,1%
Cc1ccccc1Cn1cnc2c([N+](=O)[O-])c(C)c(C)cc21,2%,-2.2%,-1,0%
Cn1c(=O)cc(SCC(=O)NCCC2=CCCCC2)c2ccc(Cl)cc21,-8%,3.3%,-11,23%
CC1CCN(C(=O)Cn2cc([N+](=O)[O-])ccc2=O)c2ccccc2S1 (configuration not stated),nt,0.7%,nt,17%
CCCCNCCOCCSc1ccc(Cl)cc1,-7%,2.8%,-20,25%
CC(=O)c1ccc(C(=O)N2CCc3c([nH]c4ccccc34)C2c2ccccn2)s1 (configuration not stated),1%,0.5%,4,9%
c1ccc(OCc2nn3c(-c4ccco4)nnc3s2)cc1,-21%,4.3%,1,-2%
O=C(Nc1cc(C(F)(F)F)ccc1N1CCOCC1)c1n[nH]c(=O)c2ccccc12,-8%,-1.1%,2,-13%
CC(NC(=O)COc1ccc([N+](=O)[O-])cc1)c1ccccc1 (configuration not stated),2%,-2.7%,-16,2%
Cc1cc(NC(=O)c2n[nH]c(=O)c3ccccc23)ccc1Br,-23%,-1.8%,-3,15%
COc1cc(COCC(O)CN2C(C)CCCC2C)cc(OC)c1OC (configuration not stated),2%,3.6%,nt,-12%
CC(C)c1ccc(N2C(=O)CC(Sc3ncccn3)C2=O)cc1 (configuration not stated),-6%,-0.2%,nt,23%
CCN1CCN(C(=O)c2cc(S(=O)(=O)N3CC(C)CC(C)C3)ccc2Cl)CC1 (configuration not stated),nt,-0.1%,nt,-4%
O=C(COc1ccccc1Br)N1CCN(C(=O)c2cccs2)CC1,nt,-3.6%,nt,14%
O=C(NCCC1=CCCCC1)c1cc2c(s1)CS(=O)(=O)C2,-34%,0.4%,2,10%
CCOC(=O)c1c(Cl)c(C)nn1-c1nc(OC)cc(OC)n1,-3%,-0.2%,6,2%
Cc1nc2ccc(C(=O)N3CCN(Cc4ccccc4)CC3)cc2[nH]1,-1%,-2.9%,nt,4%
O=C(COc1ccc([N+](=O)[O-])cc1)NCc1ccccc1,-3%,0.8%,3,-15%
O=C(NNC(=O)C1CC=CCC1C(=O)O)c1ccc(Cl)cc1 (configuration not stated),4%,?,3,?
Cn1nc(C(F)(F)F)cc1Oc1ncc(C(F)(F)F)cc1Cl,2%,-3.4%,-16,-9%
CCc1ccc(C(=O)COC(=O)c2nn(C)c(=O)c3ccccc23)cc1,-2%,1.3%,-5,0%
CCC(=O)Nc1c2c(nn1-c1cccc(Cl)c1)CS(=O)(=O)C2,-2%,0.6%,nt,0%

Screening data from PubChem.
